Screening data deposited in PubChem BioAssay by Southern Research Institute.
V. cholerae motility = Vibrio cholerae motility inhibitors, OD read-out (AID 588778); Vibrio cholerae motility, OD read-out; higher % means a stronger effect; test concentration not given here; primary cut-off and reference of the scale not given here; strong numbers were not always called active; inhibition, %; hits with a dose series show IC50 in µg/mL; 10,000 tested, under 10 active; in the data active = confirmed in a dose series
V. cholerae motility viability = further read-out of V. cholerae motility, marked with its call; inhibition, %; measured here: bacterial viability at 10 ug/mL;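 higher means fewer living bacteria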
* marks the source's active call; other numbers are inactive results. Some of the compounds tested; the hit share may differ from the screen's.

SMILES	V. cholerae motility	V. cholerae motility viability
Cc1c(C(=O)Nc2cccc(N(C)S(C)(=O)=O)c2)cccc1[N+](=O)[O-]	-1%	-5
CCOC(=O)CS(=O)(=O)c1ccc2ccccc2c1	2%	3
O=[N+]([O-])c1ccc(NCCNc2nc(N3CCCC3)nc3ccccc23)cc1	9%	-1
CCC(=O)Nc1ccc(Cl)c(NC(=S)NC(=O)COc2ccc(Cl)cc2)c1	-3%	-3
Cc1cc(N2C(=O)CC(N3CCC(C(=O)N4CCOCC4)CC3)C2=O)no1 (centres undefined)	-1%	-2
CSc1ccccc1NC(=S)Nc1cccc(C(C)=O)c1	-11%	3
COC(=O)C1CCN(C(=O)c2cc(Cl)ccc2OC)CC1	-6%	-6
CN1CC2CCCC3(C1)C(=O)NC1(CCCCC1)N=C23 (centres undefined)	-2%	-5
CN(C(=O)c1ccc(Br)o1)C1(C)CCS(=O)(=O)C1 (centres undefined)	-2%	-2
O=C(Cn1cnc2ccccc21)N/N=C/c1cc(Br)ccc1O	4%	-6
CCCS(=O)(=O)N1CCN(S(=O)(=O)c2ccc(F)cc2)CC1	0%	-9
Cn1c(=O)[nH]c2nnc(-c3cccs3)nc2c1=O	19%	0
O=C(CC(NC(=S)Nc1ccccc1)c1ccccc1)c1ccccc1 (centres undefined)	15%	6
COc1ccc(Cl)cc1CNc1ccc(N2CCOCC2)c(C(=O)O)c1	18%	4
CCOC(=O)Nc1ccc(NC(=O)c2c(OC)cccc2OC)cc1	18%	15
O=C(Cn1nnc(-c2ccc(OCc3cccc(C(F)(F)F)c3)cc2)n1)N1CCOCC1	15%	7
O=C(Nc1ccccc1C(F)(F)F)c1ccc(Cl)s1	-10%	-9
O=C(Oc1ccc(Cl)cc1N1C(=O)CCC1=O)c1ccco1	11%	23
Cc1cc(C(=O)Nc2nnc(-c3ccncc3)s2)no1	-5%	-4
CC(C)Oc1ccc(Cc2c(O)n(-c3ccccc3)c(=S)[nH]c2=O)cc1	-2%	-6
O=C(CSc1ccc([N+](=O)[O-])cn1)N1CCc2ccccc21	5%	2
COc1nc(Nc2ccc(OC)c(Cl)c2)nc(OC)n1	-9%	-12
O=C(NNC(=S)NCc1ccco1)c1ccccc1I	13%	0
CC(=O)Nc1c(OC(C)=O)c2ccccc2oc1=O	-9%	-8
N#Cc1cc(Oc2ccccc2)c(Oc2ccccc2)cc1C#N	-8%	-2

New compounds follow
SMILES	V. cholerae motility	V. cholerae motility viability
O=C(OCc1c(F)cccc1Cl)c1ccccc1C(=O)c1ccccc1	-2%	0
CCCCCOc1ccc(/C=C/C(=O)Nc2ccc(-c3nc4ccc(C)cc4s3)cc2)cc1OC	-5%	-3
COC(=O)C(O)(c1ccc(NC(=O)c2c(F)c(F)c(F)c(F)c2F)c(C)c1)C(F)(F)F (centres undefined)	22%	11
O=C(NCCOc1cccc(Cl)c1Cl)c1cncc(Br)c1	0%	-4
Cc1cc(SCC(=O)c2cccs2)nc2ccccc12	1%	-3
Cc1cccc(NC(=S)Nn2cnnc2)c1C	11%	3
Clc1ccc(OCc2cn3ccccc3n2)cc1	65%	16
O=c1c2cc(I)ccc2nc(/C=C/c2cccs2)n1-c1ccccc1Cl	-2%	-4
CCCc1cc2c(cc1NC(=O)c1cc(F)c(F)cc1Cl)OCO2	-6%	-2
COc1nc(C)ccc1-c1noc(-c2ccccc2F)n1	-1%	-4
O=C(OCC#CCOC(=O)c1ccccc1)c1ccccc1	8%	-10
O=C(C1CCCO1)N1CCN(C(=S)Nc2ccc(Br)cc2Cl)CC1 (centres undefined)	-6%	-4
O=C1c2cc(Cl)c(Cl)cc2C(=O)N1c1cc(C(F)(F)F)ccc1Cl	2%	0
O=C(c1ccc(Cl)cc1)N1CCCn2c1nc1ccccc12	6%	0
COCc1nnc(NS(=O)(=O)Cc2ccccc2)s1	0%	-2
O=C(c1cnccn1)N1CCN(c2ccccc2F)CC1	-3%	0
COc1ccc(CN(C)CC23CC4CC(CC(C4)C2)C3)cc1	10%	-1
C=CCn1c(SCC(=O)c2cc(Cl)sc2Cl)nc2ccccc2c1=O	-12%	-3
O=C1c2ccccc2C(=O)N1OS(=O)(=O)c1cccc([N+](=O)[O-])c1	11%	4
O=c1c2ccccc2nc(SCc2ccc(F)cc2Cl)n1CC1CCCO1 (centres undefined)	-10%	-5
Cc1ccccc1N1CCN(C(=S)c2ccc(OCc3ccccc3)cc2)CC1	-12%	-7
CCNC(=S)NCCCn1ccnc1	-12%	4
COCCn1c(C)cc(C(=O)CSc2nnnn2-c2ccccc2)c1C	0%	6
COc1ccc(-c2cc(C(=O)NNC(=S)NCc3ccco3)c3cc(C)ccc3n2)cc1OC	-7%	-5
CCC(Oc1ccccc1)C(=O)O/N=C(\N)c1ccc(Br)cc1 (centres undefined)	-11%	-3

New compounds follow
SMILES	V. cholerae motility	V. cholerae motility viability
CC(C)(C)OC(=O)NNC(=O)Nc1ccccc1C(F)(F)F	15%	32
O=C(O)c1ccccc1-c1ccccc1C(=O)Nc1ccccc1I	-4%	2
COc1cc2c(cc1OC)C(=S)NC(C)(C)C2	-15%	-7
O=C(O)c1ccc(Sc2nnc(-c3cccc(Br)c3)o2)c([N+](=O)[O-])c1	8%	0
COc1ccc(Br)cc1S(=O)(=O)Nc1ccc(Cl)cn1	6%	-5
Nc1nc(SCc2nnc(Nc3ccccc3)s2)nc2sc3c(c12)CCC3	10%	-3
O=C(CSc1ccc(Cl)cc1)Nc1ccc(F)c(F)c1F	-1%	-4
N#Cc1c(NC(=O)CSc2nc(N)cc(=O)[nH]2)sc2c1CCCC2	6%	-1
CCC(=O)NNC(=O)c1cc(=O)[nH]c2ccccc12	15%	4
NC(=O)C1(N2CCCCC2)CCN(C(=S)Nc2ccc(F)c(Cl)c2)CC1	0%	-6
O=C(CCC1COc2ccccc2O1)Nc1nncs1 (centres undefined)	-3%	-1
Cc1ccc(C(C)(C)C)cc1S(=O)(=O)NC(=O)c1ccccc1	6%	-11
Cc1nc2ccc(NC(=O)N3CC4(C)CC3CC(C)(C)C4)cc2s1 (centres undefined)	-2%	6
CCNc1nc(NCC)n2c(=S)[nH]nc2n1	17%	6
O=C(Cc1ccc(Cl)cc1)NC(=S)Nc1ccc(S(=O)(=O)Nc2nccs2)cc1	1%	-1
Cc1c(C(=O)OC(C)C)sc(NC(=O)c2cc(Br)ccc2Cl)c1C#N	12%	10
Cc1ccc(S(=O)(=O)n2nnc3ccccc32)c(C)c1C	-20%	-6
CC(=O)Nc1cccc(NC(=S)Nc2cccc(Cl)c2Cl)c1	127%	33
CCOC(=O)c1cccc(NC(=O)/C(=C\c2ccc3c(c2)OCO3)NC(=O)c2ccccc2Cl)c1	-10%	3
COc1cc(C23CC4CC(CC(C4)C2)C3)ccc1C(=O)NC1=NCCS1	-2%	-1
CCCc1cc(=O)n2[nH]c(-c3cccc(Br)c3)cc2n1	2%	6
Cc1ccc2nc(NC(=O)NC3CCCCC3)sc2c1	2%	-5
COC(=O)c1ccccc1NC(=O)CSc1nc(-c2ccc(F)cc2)cs1	-7%	-10
N#C/C(=C/c1cn(-c2ccccc2)nc1-c1ccncc1)c1nc2ccccc2s1	6%	-1
COc1ccc(C2(CNC(=S)Nc3ccccc3)CCOCC2)cc1	-4%	-6

Next compounds follow.
SMILES	V. cholerae motility	V. cholerae motility viability
CCn1c(CSCc2ccc(Cl)c(Cl)c2)nnc1SCC(=O)Nc1cc([N+](=O)[O-])ccc1C	2%	0
N#C/C(=C\c1cccn1-c1ccc(C(=O)O)cc1)c1ccccc1	-12%	-21
Cc1ccc(SCCC(=O)NCc2ccco2)cc1	10%	3
CCC(C)c1ccc(NC(=S)Nc2cccc(C(=O)NCc3ccccc3)c2)cc1 (centres undefined)	5%	-2
COc1ccc(CCNC(=O)Cc2cccs2)cc1OC	-1%	-2
O=C(NNC(=O)C(c1ccccc1)c1ccccc1)NC1CCCCC1	16%	1
Cc1cc(C(=O)Nc2ccc(O)c(C(=O)O)c2)oc1C	-11%	-5
COc1cc(C(=O)NCC(C)(C)CNC(=O)c2cc(OC)c(OC)c(OC)c2)cc(OC)c1OC	-1%	-4
CC(C)(CNC(=O)C(Cl)(Cl)Cl)CNC(=O)C(Cl)(Cl)Cl	11%	34
O=c1cc(CSc2nnnn2-c2ccccc2)nc2nc[nH]n12	-6%	-5
CCOC(=O)COc1nc2ccc(Cl)cc2c(-c2ccccc2)c1C(C)=O	1%	-1
CC1=NN(c2ccc(S(N)(=O)=O)cc2)C(=O)/C1=C\c1ccccc1OCc1ccccc1	11%	-1
COc1ccc(OC)c2c(C)cc(C)nc12	1%	5
COc1ccc(NC(=S)NCCc2ccccc2OC)c(OC)c1	3%	1
CC(C)NC(=O)C(=O)NCCN1CCN(C(=O)c2ccc(C(C)(C)C)cc2)CC1	-6%	3
O=C(N/N=C/c1ccncc1)c1cc(-c2ccc(Cl)cc2)n[nH]1	29%	14
CCOC(=O)c1nnc2ccnn2c1N	-20%	-4
CCOC(=O)C(O)(c1ccc(NC(=O)NC2CCCCC2)c(OC)c1)C(F)(F)F (centres undefined)	-14%	-4
COC(=O)NNC(=S)Nc1cc(OC)ccc1OC	18%	-2
O=C1C(=O)N(Cc2nnc(-c3ccccc3)o2)c2ccccc21	4%	2
CCN1C(=O)c2cccc3c(NC(=O)c4ccc(Cl)s4)ccc1c23	12%	23
CC(Sc1nnc(C(F)(F)F)n1N)C(=O)NC(c1ccccc1)c1ccccc1 (centres undefined)	2%	0
O=C1N(c2ccccc2)NC(c2ccco2)C12CCCCC2 (centres undefined)	-14%	-7
COc1ccc(-c2csc(NC3=NS(=O)(=O)c4ccccc43)n2)cc1OC	-6%	-3
CS(=O)(=O)N(CC(O)Cn1c2ccccc2c2ccccc21)c1ccccc1I (centres undefined)	-5%	-8
COc1cc2c(cc1OC)CN(C(=O)CSc1nc(-c3cccnc3)ccc1C#N)CC2	3%	3
COc1ccc(CC(=O)NNC(=O)CSc2ccc(C)cc2)cc1	-26%	-5
Cc1ccc(SCC(=O)NNC(=O)C2CCCCC2)cc1	5%	-4
CN1CCN(NC(=O)c2ccccc2CCc2ccccc2)CC1	33%	16

22 of these compounds, reformatted:
Each structure is followed by: V. cholerae motility	V. cholerae motility viability
- COc1cc(C(=O)NCC(C)(C)CNC(=O)c2cc(OC)c(OC)c(OC)c2)cc(OC)c1OC
→ -1%	-4
- CC(C)(CNC(=O)C(Cl)(Cl)Cl)CNC(=O)C(Cl)(Cl)Cl
→ 11%	34
- O=c1cc(CSc2nnnn2-c2ccccc2)nc2nc[nH]n12
→ -6%	-5
- CCOC(=O)COc1nc2ccc(Cl)cc2c(-c2ccccc2)c1C(C)=O
→ 1%	-1
- CC1=NN(c2ccc(S(N)(=O)=O)cc2)C(=O)/C1=C\c1ccccc1OCc1ccccc1
→ 11%	-1
- COc1ccc(OC)c2c(C)cc(C)nc12
→ 1%	5
- COc1ccc(NC(=S)NCCc2ccccc2OC)c(OC)c1
→ 3%	1
- CC(C)NC(=O)C(=O)NCCN1CCN(C(=O)c2ccc(C(C)(C)C)cc2)CC1
→ -6%	3
- O=C(N/N=C/c1ccncc1)c1cc(-c2ccc(Cl)cc2)n[nH]1
→ 29%	14
- CCOC(=O)c1nnc2ccnn2c1N
→ -20%	-4
- CCOC(=O)C(O)(c1ccc(NC(=O)NC2CCCCC2)c(OC)c1)C(F)(F)F (centres undefined)
→ -14%	-4
- COC(=O)NNC(=S)Nc1cc(OC)ccc1OC
→ 18%	-2
- O=C1C(=O)N(Cc2nnc(-c3ccccc3)o2)c2ccccc21
→ 4%	2
- CCN1C(=O)c2cccc3c(NC(=O)c4ccc(Cl)s4)ccc1c23
→ 12%	23
- CC(Sc1nnc(C(F)(F)F)n1N)C(=O)NC(c1ccccc1)c1ccccc1 (centres undefined)
→ 2%	0
- O=C1N(c2ccccc2)NC(c2ccco2)C12CCCCC2 (centres undefined)
→ -14%	-7
- COc1ccc(-c2csc(NC3=NS(=O)(=O)c4ccccc43)n2)cc1OC
→ -6%	-3
- CS(=O)(=O)N(CC(O)Cn1c2ccccc2c2ccccc21)c1ccccc1I (centres undefined)
→ -5%	-8
- COc1cc2c(cc1OC)CN(C(=O)CSc1nc(-c3cccnc3)ccc1C#N)CC2
→ 3%	3
- COc1ccc(CC(=O)NNC(=O)CSc2ccc(C)cc2)cc1
→ -26%	-5
- Cc1ccc(SCC(=O)NNC(=O)C2CCCCC2)cc1
→ 5%	-4
- CN1CCN(NC(=O)c2ccccc2CCc2ccccc2)CC1
→ 33%	16
